FGF22 binding – binders of human FGF22 protein, primary screen, FGF22 synaptogenesis inhibitor project, biophysical, thermal shift, single point; Fibroblast growth factor 22 (Homo sapiens), Q9HCT0; AID 651658, 2012; calls only at 9.99 µM; recombinant FGF22 thermal shift, SYPRO orange fluorescence; percent of sucrose octasulfate shift, DMSO zero; hit rate 1.5% among 340,000;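 active = melting point raised past a set limit in the mean and every replicate; inconclusive = no clear call; three in four hits are not shown here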
Target sequence (Q9HCT0 whole entry, looked up): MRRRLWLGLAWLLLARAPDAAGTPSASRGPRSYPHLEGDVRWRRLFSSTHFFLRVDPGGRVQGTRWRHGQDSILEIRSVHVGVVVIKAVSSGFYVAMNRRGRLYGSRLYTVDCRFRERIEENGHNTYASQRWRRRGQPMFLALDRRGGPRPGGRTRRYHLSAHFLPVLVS
Ecoli growth – E. coli growth inhibition, primary screen, OD600 | hit rate 0.21% among 330,000 | OD600 absorbance (no concentration beside the values) | Escherichia coli growth, 23 h; stronger effect = lower value | AID 1053175, 2014;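 active = OD600 absorbance below the run mean of sample wells minus 3.6 SD, in any replicate, cut at about 0.56 in these data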;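 note: stock transfer was 300 nL into about 60 µL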
Vif A3G – inhibitors of Vif binding to APOBEC3G peptide, primary screen, biochemical, TR-FRET, GST-Vif 1-94, biotin-A3G peptide, dose response retest (AID 1117319); TR-FRET GST-Vif / biotin-A3G peptide binding; higher % means a stronger effect; test concentration not given here; strong numbers were not always called active; one-dose inhibition, %; IC50 in µM for titrated hits; hit rate 0.57% among 260,000;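 active = above the screen mean plus three standard deviations and confirmed in dose response; inconclusive = results disagree or hit not tested in dose response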;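 note: Vif residues 1-94 fused to GST binding biotinylated APOBEC3G peptide 110-148; 0% = full assay without inhibitor and 100% = GST in place of GST-Vif; retest series ran down from 100 µM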
HNF4A DNA FP – change in binding of human HNF4A to DNA, primary screen, biochemical, fluorescence polarization, FITC-DNA; 1 h; AID 1224865, 2016; Hepatocyte nuclear factor 4-alpha (Homo sapiens), P41235; hit rate 0.3% among 360,000; activity change, % at 10 µM; in the data active = activity change above about 30%, passing the limit was not always enough;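 note: controls were the assay level and a saturating level of protein; the project sought stronger binding though the title names inhibitors; some compounds called inactive have numbers as strong as hits; positive values seem to mean higher polarization but the record does not say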
Target sequence (P41235 whole entry, looked up): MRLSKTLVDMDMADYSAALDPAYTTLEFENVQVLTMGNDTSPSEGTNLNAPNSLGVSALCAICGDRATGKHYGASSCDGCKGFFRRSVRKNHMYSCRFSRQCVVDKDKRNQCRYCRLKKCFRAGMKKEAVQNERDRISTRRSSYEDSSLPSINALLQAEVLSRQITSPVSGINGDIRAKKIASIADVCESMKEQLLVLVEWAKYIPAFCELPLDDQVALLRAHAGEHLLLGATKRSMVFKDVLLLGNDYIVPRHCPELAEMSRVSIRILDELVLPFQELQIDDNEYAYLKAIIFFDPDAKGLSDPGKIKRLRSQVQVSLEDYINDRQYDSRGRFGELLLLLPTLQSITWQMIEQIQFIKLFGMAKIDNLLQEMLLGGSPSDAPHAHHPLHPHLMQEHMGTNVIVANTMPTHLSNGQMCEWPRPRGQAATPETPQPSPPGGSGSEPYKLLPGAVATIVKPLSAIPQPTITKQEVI
ALR H2O2 inh – inhibitors of human ALR sulfhydryl oxidase, primary screen, biochemical, H2O2 detection, HRP-luminol luminescence, single point; inhibition, % (no concentration beside the values); hit rate 3.8% among 290,000; FAD-linked sulfhydryl oxidase ALR (Homo sapiens), P55789; purified ALR, DTT oxidation;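 active = mean and each replicate at 75% or more; inconclusive = only one of the two met; inactive = neither met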;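 note: stock transfer was 7.5 nL into about 7.5 µL; 0% = neutral wells and 100% = wells with inactivated enzyme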
Target sequence (P55789 whole entry, looked up): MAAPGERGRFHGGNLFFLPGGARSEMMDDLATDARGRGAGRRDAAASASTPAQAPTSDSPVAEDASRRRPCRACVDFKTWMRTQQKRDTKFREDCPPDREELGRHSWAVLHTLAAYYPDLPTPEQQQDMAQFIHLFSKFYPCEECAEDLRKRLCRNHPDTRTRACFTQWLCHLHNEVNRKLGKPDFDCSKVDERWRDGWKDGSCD
AF4-AF9 inh – inhibitors of AF4 peptide binding to AF9, primary screen, biochemical, AlphaScreen, biotin-AF4 peptide, FLAG-AF9, single point | hit rate 0.47% among 350,000 | Protein AF-9 (Homo sapiens), P42568 | inhibition, % at 10 µM;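 active = every replicate reaching a set inhibition limit, whatever the replicate mean, cut at about 25% in these data; inconclusive = mean inhibition reaches that limit but some replicates miss it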;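 note: 0% = plate neutral control median and 100% = total signal loss; the record names both 10 and 1 µM as test concentration; the first replicate is given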
Ecoli rRNA inh – reduced GFP signal of wild-type E. coli, primary screen, bacterial rRNA inhibitor project, GFP/RFP fluorescence, OD600, single point. E. coli WT GFP vs humanized-ribosome RFP mutants, 24 h; stronger effect = lower value; DMSO median 0, no signal -100. hit rate 1.6% among 350,000. GFP signal change (wild-type ribosome), % (concentration not given with the values). AID 720706, 2013;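 active = significant combined selectivity score with lowered wild-type GFP, culture density cut under 30%, mutant RFP and density less affected; inactive = any of these conditions unmet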; note: one replicate is shown; some compounds called inactive have numbers as strong as hits
Ecoli rRNA inh OD600 – recorded beside Ecoli rRNA inh, whose call it bears; OD600 change, %; measured here: OD600 growth;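 optical density of the mix in the first replicate; 0 = DMSO median and -100 = no signal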
Ecoli rRNA inh RFP – further read-out of Ecoli rRNA inh, marked with its call; RFP signal change, %; measured here: RFP humanized mutant strains;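 first replicate; 0 = DMSO median and -100 = no signal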
Starred values were filed as active, the others as inactive; i = inactive; ? = inconclusive; · = no result given; + = active, no number. An excerpt, so the mix of outcomes need not match the whole.

SMILES | FGF22 binding | Ecoli growth | Vif A3G | HNF4A DNA FP | ALR H2O2 inh | AF4-AF9 inh | Ecoli rRNA inh | Ecoli rRNA inh OD600 | Ecoli rRNA inh RFP
COc1ccc(-c2csc(Nc3ccccn3)n2)cc1OC | i | 0.62 | 2% | -2.3 | 35 | 3.3 | -4 | -5 | 15
O=C1CCC(C(=O)N2CCC(CO)CC2)CN1Cc1ccc(Cl)cc1 (centres undefined) | i | 0.7 | 5% | -1.1 | -5 | -0.8 | -2 | 8 | -0.8
CCOC(=O)c1c(NC(=O)COc2ccccc2F)sc2c1CC(C)(C)NC2(C)C | + | 0.64 | · | 2.0 | -5 | -18 | 11 | 6 | 7.1
Nc1c(NC(=O)CC[n+]2ccccc2)cccc1[N+](=O)[O-] | i | · | -1% | 1.5 | -5 | -5.4 | 2 | 9 | 2.9
COCC(=O)N1CCCCN2[C@H](CO)[C@@H](c3ccc(-c4cccc(C)c4)cc3)[C@H]2C1 | i | · | · | · | · | 6.6 | 7 | 9 | -1.5
Cc1ccc2[nH]c(=O)c(CN(CCN3CCOCC3)C(=O)Nc3ccccc3F)cc2c1 | · | 0.77 | 31% | 3.5 | · | · | · | · | ·
CCOc1ccc(S(=O)(=O)NC(C)C(=O)NCc2ccc3c(c2)OCO3)cc1 (centres undefined) | i | 0.64 | · | 0.8 | -4 | 0.1 | 0 | 10 | -0.2
O=C(NCC1CCCO1)c1c(O)c2ccccc2[nH]c1=O (centres undefined) | · | 0.71 | 6% | 2.8 | · | · | · | · | ·
Cc1ccc(C)c(NS(=O)(=O)c2ccccc2C)c1 | i | · | · | 4.6 | -12 | -0.9 | -1 | -27 | 2.2
Cc1cc(C(=O)COC(=O)CC2Sc3ccccc3NC2=O)c(C)n1-c1ccc2c(c1)OCO2 (centres undefined) | i | 0.73 | 11% | 0.3 | -27 | -0.6 | 0 | -3 | -0.4
COCc1cc(C)nc(SCc2ccc(F)cc2)c1C#N | i | 0.66 | · | -3.1 | · | 0.9 | -28 | -30 | -9.4
CCCc1n[nH]c(=O)[nH]1 | · | 0.79 | -9% | -0.8 | -3 | · | · | · | ·
COc1cc(Cl)c(C)cc1NC(=O)COC(=O)/C=C/c1c(C)nn(C2CCS(=O)(=O)C2)c1Cl (centres undefined) | · | · | 2% | 0.7 | -22 | · | · | · | ·
C[C@H]1CCCCO[C@H](CN(C)Cc2ccncc2)[C@@H](C)CN([C@@H](C)CO)C(=O)c2cc(NS(=O)(=O)c3ccc(Cl)cc3)ccc2O1 | i | · | · | · | · | -2.7 | -5 | -11 | 4.7
O=C(NN1CC(C(=O)OCc2ccccc2F)CC1=O)c1ccccc1 (centres undefined) | i | 0.7 | · | 3.6 | 0 | -2.3 | -3 | 12 | 1.8
Fc1ccccc1NC(=S)N/N=C/c1ccccc1Br | · | · | 16% | -0.3 | 25 | · | · | · | ·
CCc1nc(SCC(=O)Nc2ccccc2C(=O)OC)n[nH]1 | · | 0.69 | 1% | -1.1 | -2 | · | · | · | ·
CC(C)(C)NC(=O)NC(=O)CN1CCN(S(=O)(=O)c2ccccc2)CC1 | · | 0.67 | 4% | 1.6 | -2 | 2.9 | 6 | -2 | -8.7
Cn1c(-c2ccc(Cl)nc2)nc2ccccc21 | i | 0.67 | -9% | 1.1 | -3 | -0.6 | 5 | 6 | 4.0
CCN(CC)CCNc1nc2c(c(=O)n(C)c(=O)n2C)n1C/C=C(/C)Cl | · | 0.74 | 0% | -1.1 | 9 | · | · | · | ·
Cc1cc(N2CCCC(C(=O)Nc3ccc4c(c3)CCC4)C2)n2ncnc2n1 (centres undefined) | · | 0.7 | -8% | 3.6 | -1 | · | · | · | ·
CN1CCN(/C=N/c2sc3c(c2C#N)CCCCC3)CC1 | · | · | 11% | 3.5 | 4 | · | · | · | ·
COc1ccccc1C1/C(=C(/O)c2ccc(C)cc2)C(=O)C(=O)N1Cc1ccco1 (centres undefined) | · | 0.66 | · | -4.2 | 9 | -0.7 | 7 | 8 | 1.7
CCOc1ccc(Cl)cc1CNCCCSc1nc(C)cc(C)n1 | i | 0.68 | ? | 2.0 | 3 | 8.4 | -5 | -2 | -1.7
Cc1ccc(OCC(=O)NNC(=O)CCC(=O)NCc2ccccc2)cc1 | i | 0.65 | 0% | 2.0 | 3 | 2.7 | 16 | 5 | -2.7
CCOc1ccc(-c2c(C(=O)N/N=C/c3ccc(C)o3)nnn2-c2nonc2N)cc1 | · | · | · | -2.7 | 2 | -5.2 | 1 | 2 | 0.5
COc1cc2c(cc1OC)C1(CCCCC1)CN(C)C2 | i | 0.72 | 10% | 0.6 | -7 | -7.9 | 1 | 16 | 0.0
CSc1nc(SCC(=O)NC(c2ccccc2)c2ccccc2)c2c3c(sc2n1)CN(C)CC3 | · | 0.76 | 13% | 6.9 | 93* | · | · | · | ·
COc1ccc(N)cc1-n1cnnn1 | i | 0.67 | -6% | 3.3 | 11 | -0.4 | 7 | 2 | -0.1
CCc1sc(C(=O)NCCc2ccc(S(N)(=O)=O)cc2)cc1C | i | 0.64 | · | -0.6 | 0 | 0.3 | -10 | -10 | -0.9
CN1CCN(C(=O)C[C@@H]2CC[C@H]3[C@@H](COc4ccc(NC(=O)C5CCC5)cc4C(=O)N3C)O2)CC1 | i | · | · | · | · | 0.2 | 3 | 7 | 1.1
O=C(Nc1ccc(F)cc1)N[C@H]1CC[C@H](CCn2cc(-c3ccccc3F)nn2)O[C@H]1CO | i | · | · | · | · | -1.4 | 0 | -5 | -0.3
N#C/C(=C/c1ccco1)C(N)=S | i | 0.66 | · | 0.0 | 4 | -8.1 | 12 | 7 | 6.9
C=CCN1CC(c2nc3ccccc3n2Cc2ccccc2)CC1=O (centres undefined) | · | 0.76 | 3% | 0.5 | -4 | · | · | · | ·
CC(=O)Nc1ccc(NC(=O)C(=O)c2cn(CC(=O)N3CCCCC3)c3ccccc23)cc1 | i | 0.72 | -4% | 5.0 | -14 | -1.7 | 8 | 8 | 0.6
CCS(=O)(=O)Nc1ccc2c(c1)C(=O)N(C)C[C@H](OC)[C@@H](C)CN(C(=O)CN(C)C)[C@H](C)CO2 | i | · | · | · | · | -1.9 | 3 | 4 | -0.8
CCN(C(=O)CN(C)Cc1cccc(Cl)c1Cl)c1c(N)n(Cc2ccccc2)c(=O)[nH]c1=O | · | 0.72 | -5% | 0.7 | -2 | · | · | · | ·
C[C@@H]1CN([C@@H](C)CO)C(=O)c2cc(NC(=O)Nc3ccc4c(c3)OCO4)ccc2O[C@@H](C)CCCCO[C@@H]1CN(C)Cc1ccc(C(=O)O)cc1 | i | · | · | · | · | 2.4 | -2 | -3 | -2.0
COc1ccc(NC(=O)N2CCN(C(=O)C3CCCO3)CC2)cc1 (centres undefined) | i | 0.71 | · | -1.1 | -9 | -1.1 | 15 | 4 | 4.7
Cc1cc2[nH]c(=S)[nH]c2cc1C | i | 0.67 | · | 2.2 | 99* | -0.1 | 15 | 9 | -1.3
COc1cc(NC(=O)c2ccc3c(SCC(=O)O)c4c(nc3c2)CCCC4)cc(OC)c1OC | i | 0.72 | · | -0.8 | 97* | 3.1 | -8 | -3 | -3.9
CCc1nc2cc(NC(=O)C3(C)CCCN(C(C)C)C3)ccc2o1 (centres undefined) | i | · | · | 1.1 | · | -4.0 | 7 | 12 | 2.5
Cn1c(=O)[nH]c2ncn(C)c2c1=O | i | 0.69 | · | 25 | 3 | -3.7 | · | · | ·
Cc1noc(C)c1C(=O)Nc1sc(C)c(C)c1C#N | · | 0.66 | 4% | 0.1 | 19 | · | · | · | ·
COc1ccccc1N1CCN(C(=O)c2cccc(N3C(=O)C4C5C=CC(C5)C4C3=O)c2)CC1 (centres undefined) | i | 0.68 | · | -1.4 | 13 | 0.1 | 1 | 1 | -0.7
CCOc1nc(-c2ccccc2Cl)ccc1C#N | · | 0.65 | 31% | 5.5 | 0 | · | · | · | ·
Cc1ccc2cc(CN(Cc3ccco3)C(=O)NCc3ccccc3)c(=O)[nH]c2c1C | · | 0.75 | -1% | 0.4 | -1 | · | · | · | ·
CSc1nc2c(c(=O)[nH]1)C(c1ccccc1)C1=C(CC(C)(C)CC1=O)N2 (centres undefined) | i | · | -7% | 0.5 | -10 | -0.3 | 11 | 15 | 2.8
Cc1noc(C)c1S(=O)(=O)Nc1cccc2c1O[C@H](CN(C)Cc1ccc(C(=O)Nc3ccccc3N)cc1)[C@H](C)CN([C@H](C)CO)C2=O | i | · | · | · | · | 0.4 | 1 | 0 | -1.2
CCCCOC(=O)n1c(=O)oc2ccccc21 | · | 0.77 | 3% | 1.8 | -8 | · | · | · | ·
Cn1cc(S(=O)(=O)NCc2ccc3c(c2)OCO3)c(C(F)(F)F)n1 | i | 0.69 | · | 3.2 | -7 | -2.8 | 5 | 8 | -1.3
CCCCN(C(=O)CCC(=O)Nc1cc(C)on1)C(C(=O)NC(C)(C)CC)c1cccc(OC)c1OC (centres undefined) | i | 0.71 | -9% | -0.6 | -6 | -22 | -9 | 4 | 4.9
O=C1c2ccccc2C(=O)N1CCSc1nnc(-c2ccco2)n1Cc1ccccc1 | · | 0.73 | -1% | -5.2 | -5 | · | · | · | ·
COc1cc(C)nc(NCc2ccccc2)n1 | · | 0.68 | 0% | -0.1 | · | · | · | · | ·
Cc1cc(SCC(=O)N2CCCC2)nc2ccccc12 | · | 0.71 | 3% | -3.2 | 56 | · | · | · | ·
CCC(C)Nc1nc(N)c([N+](=O)[O-])c(NCc2ccccc2)n1 (centres undefined) | i | 0.67 | -8% | 2.3 | 4 | 0.5 | -71 | -80 | -27
C[C@H]1CN([C@@H](C)CO)C(=O)Cc2cc(NS(=O)(=O)c3ccc(F)cc3)ccc2O[C@@H]1CN(C)S(C)(=O)=O | i | · | · | · | · | 5.1 | 1 | 5 | -1.3
O=C(Cn1cc([N+](=O)[O-])cn1)N1N=C(C(F)F)CC1(O)C(F)F (centres undefined) | · | 0.73 | 2% | -2.4 | -3 | · | · | · | ·
CCOCCCNCc1ccc(OCC(=O)N2CCOCC2)c(OC)c1 | · | 0.68 | · | 1.8 | -4 | -2.6 | 3 | 9 | 0.8

Three of the compounds above, with two lines to a compound:
Below each compound: FGF22 binding | Ecoli growth | Vif A3G | HNF4A DNA FP | ALR H2O2 inh | AF4-AF9 inh | Ecoli rRNA inh | Ecoli rRNA inh OD600 | Ecoli rRNA inh RFP
> Nc1c(NC(=O)CC[n+]2ccccc2)cccc1[N+](=O)[O-]
→ i | · | -1% | 1.5 | -5 | -5.4 | 2 | 9 | 2.9
> COCC(=O)N1CCCCN2[C@H](CO)[C@@H](c3ccc(-c4cccc(C)c4)cc3)[C@H]2C1
→ i | · | · | · | · | 6.6 | 7 | 9 | -1.5
> Cc1ccc2[nH]c(=O)c(CN(CCN3CCOCC3)C(=O)Nc3ccccc3F)cc2c1
→ · | 0.77 | 31% | 3.5 | · | · | · | · | ·

From PubChem BioAssay
